Compound activity from PubChem BioAssay.
miR-21 FLuc = miR-21 reporter, rising signal; AID 2288; Potency, µM (top dose mostly 38.3 µM), without a hit: at the highest dose reporter change, positive = more light; 340,000 tested, under 10 active; HeLa miR-21 FLuc reporter, luciferase, 48 h; active = well fitted rising curve with a large enough effect; inconclusive = small, poorly fitted or top-dose-only effect; inactive = no such curve, though single readings can be large or run the other way;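 further: % of control where 0% means no effect; miR-21 action dims this reporter so a rising signal means less miR-21 action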
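Luminescence from a firefly luciferase reporter carrying a miR-21 binding site downstream, stably expressed under a CMV promoter in HeLa cells that make miR-21 endogenously, reports miRNA modulation after 48 h compound exposure up to approximately 40uM final.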
Rango complex inh = inhibitors of Rango-importin beta complex formation | Q14974 | 0.031% of 340,000 active | Rango CFP/YFP FRET sensor + importin beta, 45 min | Potency, µM (titrated, usually from 92.2 µM), for inactives: top-dose inhibition of complex formation; active = rising FRET ratio curve, often small or poorly fitted; inconclusive = mostly compound fluorescence or quenching in the first reads; inactive = flat curves in all reads;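 further: potency means the concentration at half of the fitted maximal effect; 0% = DMSO wells and 100% = buffer wells lacking importin beta; nearly all actives have a fitted effect of over 15% in size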
Target sequence (Q14974 whole entry, looked up): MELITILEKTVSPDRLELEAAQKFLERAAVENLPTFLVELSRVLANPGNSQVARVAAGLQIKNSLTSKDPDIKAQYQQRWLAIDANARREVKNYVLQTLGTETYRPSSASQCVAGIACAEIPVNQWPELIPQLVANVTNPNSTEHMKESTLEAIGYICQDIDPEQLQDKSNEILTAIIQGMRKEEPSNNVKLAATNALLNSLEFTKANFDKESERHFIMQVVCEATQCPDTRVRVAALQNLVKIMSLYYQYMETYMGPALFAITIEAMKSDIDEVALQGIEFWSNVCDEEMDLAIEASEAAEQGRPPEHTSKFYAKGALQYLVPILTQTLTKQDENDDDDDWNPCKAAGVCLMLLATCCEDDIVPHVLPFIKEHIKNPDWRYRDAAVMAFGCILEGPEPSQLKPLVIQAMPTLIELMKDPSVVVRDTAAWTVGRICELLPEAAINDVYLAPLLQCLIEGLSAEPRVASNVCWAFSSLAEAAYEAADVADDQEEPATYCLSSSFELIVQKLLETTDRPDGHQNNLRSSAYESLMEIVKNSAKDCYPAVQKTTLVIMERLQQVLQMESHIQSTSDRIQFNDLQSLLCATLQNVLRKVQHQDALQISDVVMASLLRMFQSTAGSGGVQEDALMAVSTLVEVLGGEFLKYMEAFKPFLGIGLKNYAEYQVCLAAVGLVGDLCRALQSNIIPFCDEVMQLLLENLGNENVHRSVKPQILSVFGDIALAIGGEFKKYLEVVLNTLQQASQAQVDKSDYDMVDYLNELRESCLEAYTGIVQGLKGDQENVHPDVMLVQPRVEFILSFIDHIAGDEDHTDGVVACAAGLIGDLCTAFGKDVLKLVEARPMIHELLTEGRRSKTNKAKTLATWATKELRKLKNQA
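Inhibition scored from the CFP 486 nm/YFP 530 nm FRET ratio 45 min after adding 0.125 microM importin beta to 50 nM Rango biosensor preincubated 5 min with compound (room temperature, PBS with DTT, Tween-20, BSA). No-importin wells as positive control.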
GLA inh pH 4.5 = alpha-galactosidase A (human) inhibition, pH 4.5 | P06280 | AID 1467 | activity change, negative = inhibition, % at 105 µM | purified enzyme, 4-MU-alpha-Gal fluorescence, pH 4.5 | 230,000 tested, under 10 active; inconclusive = small, poorly fitted or top-dose-only inhibition, or a rising curve; inactive = flat fitted curve, though single readings scatter; no compound was filed as active;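 further: 0% = full activity with enzyme and -100% = basal without enzyme; dose as in the result columns while the protocol names 77 µM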
Rango release inh = inhibitors of RanGTP-induced Rango-importin beta complex dissociation; Biochemical FRET Rango-importin beta, RanGTP-induced dissociation; Potency, µM (series often up to 46.1 µM), without a hit: top-dose activity change, negative = inhibition; 0.071% of 340,000 active; O95149+P62826; AID 540253; active means falling FRET ratio curve, often poorly fitted, with flat reads before Ran was added; inconclusive means other falling curves, or compound fluorescence or quenching; inactive means flat or rising ratio curve;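 further: potency means the concentration at half of the fitted maximal effect; % of control where 0% means no effect; nearly all actives have a fitted effect of over 45% in size; -100% = wells without RanGTP and RCC1; the record marks most hits as doubtful in a second field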
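Two FRET readings bracket the reaction: one 5 min after compound meets Rango–importin beta, another 45 min after RanGTP-RCC1 (0.6 uM Ran, 0.2 uM RCC1, 2 mM GTP) is added. Only the second defines inhibition.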
An asterisk follows results filed as active; ? = inconclusive; nt = not tested or not shown; [ ] = remark or other dose. Only part of the results is shown; the hit share may differ from the screen's.

Screens by letter – A = miR-21 FLuc; B = Rango complex inh; C = GLA inh pH 4.5; D = Rango release inh
CCOc1ccccc1NC(=O)C1CCCN(S(=O)(=O)c2ccc(-n3cnnn3)cc2)C1 (stereo unspecified)
  A: 0.0%; B: -5.6%; C: nt; D: 29.3%

COc1cc2c(cc1NC(=S)Nc1ccccc1C)oc1ccccc12
  A: -28.9%; B: 0.7%; C: -1.4; D: 4.7%

C=CCn1c(SCC(N)=O)nnc1-c1cc2c(s1)CCC(CC)C2 (stereo unspecified)
  A: -74.0%; B: 6.5%; C: -3.5; D: -1.3%

O=C(CCOc1ccc(F)cc1)Nc1nccs1
  A: -5.9%; B: -0.9%; C: -6.4; D: 1.5%

COc1ccc(C(=O)CSc2ccc3nnc(-c4cccnc4)n3n2)cc1
  A: 4.4%; B: -1.3%; C: -1.2; D: -9.0%

CCCC(C(=O)NCc1ccccc1)N(C(=O)Cn1nnc(-c2cccs2)n1)c1ccc2c(c1)OCCO2 (stereo unspecified)
  A: -8.0%; B: 1.9%; C: 3.4; D: -8.2%

C1CCN(Cc2nnnn2CC2CCCO2)CC1 (stereo unspecified)
  A: -0.3%; B: 3.1%; C: 2.1; D: 2.6%

CCCCc1ccc(NC(=O)c2c(C)noc2C)cc1
  A: -23.7%; B: 3.2%; C: 2.7; D: 5.3%

O=C1CCCc2c1[nH]c1ccc(CN3CCCCC3)cc21
  A: -16.1%; B: -0.5%; C: -19.2; D: -8.5%

Cc1cc(C)n(-c2ccn(Cc3ccc(Cl)cc3Cl)c(=O)n2)n1
  A: -1.3%; B: 2.0%; C: 0.2; D: 10.5%

O=c1oc2ccccc2nc1/C=C(\O)c1ccccc1
  A: -28.4%; B: -0.4%; C: 2.4; D: -0.5%

COc1ccc(CCN(C)CCC(=O)Nc2cccc(C)c2)cc1OC
  A: -4.8%; B: 0.7%; C: 5.5; D: 3.5%

O=C(CC(Cc1ccccc1)C(=O)O)NCCc1ccc2c(c1)OCO2 (stereo unspecified)
  A: -2.8%; B: -1.5%; C: 5.1; D: 9.9%

CCN(CC)C(=O)C1CCN(Cc2cn(C)nc2-c2ccc(Oc3ccccc3)cc2)CC1
  A: -1.1%; B: 2.0%; C: 2.5; D: 3.6%

O=C(Nc1ccc(Cl)cn1)c1ccc(-c2cc(Cl)ccc2Cl)o1
  A: -6.5%; B: -0.6%; C: -0.8; D: -7.2%

Cc1ccc(Nc2cc(C)nn2-c2nc(C)cc(C)n2)cc1
  A: 26.9%; B: 6.4%; C: 1.0; D: 11.7%

O=[N+]([O-])c1cn(Cc2ccccc2)cn1
  A: -10.9%; B: 4.0%; C: 1.5; D: 6.1%

Cc1cc(C)cc(C(=O)NCC(=O)OCC(=O)NCC(F)(F)F)c1
  A: -1.5%; B: 3.4%; C: 2.9; D: 11.6%

Cc1ccc(OCC(=O)OC(C)C(=O)NC2CCCCC2C)cc1C (stereo unspecified)
  A: nt; B: -2.0%; C: nt; D: 1.3%

C/C=C/C1=CC(=O)C[C@H](c2ccc3c(c2)OCO3)C1
  A: nt; B: -0.1%; C: nt; D: 1.4%

Cc1ccc(C(=O)OCC(=O)Nc2cc(C(C)(C)C)nn2-c2ccccc2)c(O)c1
  A: nt; B: 0.9%; C: nt; D: -21.5%

COc1ccc(N2CCN(Cc3nc4sc(C)c(C)c4c(=O)[nH]3)CC2)cc1
  A: -4.2%; B: -4.3%; C: -1.8; D: -7.1%

Cn1c(SCC(=O)N2CCCCC2)nc2cccnc21
  A: -0.5%; B: 2.7%; C: 3.1; D: 0.9%

COCCNC(=O)C(c1ccc(C)o1)N(CCOC)C(=O)Cn1nnc2ccccc21 (stereo unspecified)
  A: -1.6%; B: 0.1%; C: 4.3; D: -12.0%

O=C(Nc1cccc(Br)c1)c1cc(=O)c2ccccc2o1
  A: -1.5%; B: 1.8%; C: nt; D: 5.1%

5 entries drawn at random from the list so far, as already listed:
Screens by letter – A = miR-21 FLuc; B = Rango complex inh; C = GLA inh pH 4.5; D = Rango release inh
O=C(Nc1cccc(Br)c1)c1cc(=O)c2ccccc2o1
  A: -1.5%; B: 1.8%; C: nt; D: 5.1%

COc1ccc(CCN(C)CCC(=O)Nc2cccc(C)c2)cc1OC
  A: -4.8%; B: 0.7%; C: 5.5; D: 3.5%

COc1ccc(C(=O)CSc2ccc3nnc(-c4cccnc4)n3n2)cc1
  A: 4.4%; B: -1.3%; C: -1.2; D: -9.0%

Cc1ccc(OCC(=O)OC(C)C(=O)NC2CCCCC2C)cc1C (stereo unspecified)
  A: nt; B: -2.0%; C: nt; D: 1.3%

COc1ccc(N2CCN(Cc3nc4sc(C)c(C)c4c(=O)[nH]3)CC2)cc1
  A: -4.2%; B: -4.3%; C: -1.8; D: -7.1%

Next section:
Screens by letter – A = miR-21 FLuc; B = Rango complex inh; C = GLA inh pH 4.5; D = Rango release inh
CCC1C(=O)n2nc(-c3ccccc3)cc2N=C1C (stereo unspecified)
  A: -59.4%; B: 11.0%; C: -1.4; D: 12.9%

Cc1cccc(NC(=O)COC(=O)CCc2ccc(S(=O)(=O)N3CCOCC3)cc2)c1C
  A: -1.8%; B: -0.2%; C: -8.0; D: 1.5%

COc1ccc(-c2ccnc3ncnn23)cc1
  A: -6.9%; B: -0.1%; C: 14.0; D: -15.1%

COC(=O)C(C)Sc1ccc2nnc(CCNS(=O)(=O)c3ccccc3)n2n1 (stereo unspecified)
  A: -2.0%; B: -0.1%; C: 4.5[21.1 µM]; D: 0.0%

O=C1c2ccccc2NC(c2cc(Cl)cc(Cl)c2O)N1Cc1cccnc1 (stereo unspecified)
  A: 5.8%; B: ?; C: nt; D: ?

Cc1ccc(C(=O)Nc2ccc(C(=O)N3CCCCC3)cc2)cc1
  A: -23.1%; B: -4.0%; C: -1.3; D: -22.3%

O=c1[nH]c(=S)[nH]cc1Oc1ccc(Cl)cc1Cl
  A: 0.6%; B: -0.1%; C: 4.0; D: 0.1%

O=C(Nc1ccc([N+](=O)[O-])cc1)Nc1nc(-c2ccc(Cl)s2)cs1
  A: ?; B: 1.2%; C: 0.1; D: -1.4%

COc1ccc(NC(=O)CSc2ccc3nnc(-c4cccnc4)n3n2)cc1
  A: -0.2%; B: 0.6%; C: nt; D: 10.0%

CCc1noc(C)c1C(=O)N1CC(C)SC1=Nc1ccc(Cl)cc1 (stereo unspecified)
  A: nt; B: -0.9%; C: nt; D: 4.0%

CCOc1cc(/C=N/NC(=O)c2c(-c3ccccc3)noc2C)ccc1O
  A: 5.3%; B: -0.6%; C: -3.3[21.1 µM]; D: 1.7%

Cc1cccc(OCCC(=O)NCC(=O)Nc2c(C)cccc2C)c1
  A: -7.4%; B: -0.2%; C: -3.4; D: -2.6%

Cn1nc([N+](=O)[O-])nc1Oc1ccccc1
  A: 5.7%; B: -4.7%; C: 6.5; D: -13.6%

CC(C)c1nc(Cl)c(C#N)c2c1CCCC2
  A: -5.4%; B: 0.2%; C: 0.9; D: 10.9%

COc1ccccc1NC(=O)Cc1ccsc1
  A: -8.4%; B: -2.0%; C: nt; D: -4.7%

COc1ccc2c(c1OC)C(=O)OC2Nc1nc(-c2cccc([N+](=O)[O-])c2)cs1 (stereo unspecified)
  A: -29.8%; B: 3.7%; C: -0.3; D: 32.2%

Cc1cccc(C(C)C)c1NC(=O)c1ccc(CN(c2ccccc2)S(=O)(=O)c2ccccc2)cc1
  A: -5.2%; B: -2.8%; C: -9.7; D: -3.6%

CCN(C(=O)COc1ccccc1C(=O)NCc1ccccc1)C1CCS(=O)(=O)C1 (stereo unspecified)
  A: nt; B: 0.9%; C: nt; D: 1.3%

Cc1ccsc1/C=N/Nc1nc(Cl)c(Cl)cc1Cl
  A: -45.4%; B: ?; C: -5.6; D: 8.0%

COc1ccccc1N1CCN(C(c2ccccc2Cl)c2nnnn2C(C)(C)C)CC1 (stereo unspecified)
  A: -3.9%; B: -0.4%; C: 2.2; D: -23.5%

O=c1[nH]c2ccccc2nc1-c1cccs1
  A: -37.6%; B: ?; C: -3.4; D: ?

Cc1ccc(SCC(=O)Nc2nnc(C(C)(C)C)s2)cc1
  A: -1.1%; B: 2.5%; C: nt; D: 10.4%

Cn1c(=O)c2cn(-c3cccc4ccccc34)cc2n(C)c1=O
  A: -3.1%; B: -5.3%; C: -3.9; D: ?

COc1cc(OC)cc(C(=O)NC(C(=O)NCCN(C)C)C23CC4CC(CC(C4)C2)C3)c1 (stereo unspecified)
  A: -3.4%; B: 0.4%; C: -5.0; D: 1.9%

CCc1ccc(NC(=O)/C(C#N)=C/c2cn(CC(=O)O)c3ccccc23)cc1
  A: -4.7%; B: ?; C: 0.4; D: ?

CC(=O)NC(Cc1ccc(F)cc1)C(=O)NC1CCN(S(=O)(=O)c2ccccc2)CC1 (stereo unspecified)
  A: -2.7%; B: -4.0%; C: nt; D: -13.0%

CCc1noc(C)c1C(=O)OC(C)C(=O)NCc1ccc(OC)cc1 (stereo unspecified)
  A: nt; B: 1.4%; C: nt; D: -0.1%

Cc1ccc(S(=O)(=O)N2CCN(C)CC2)cc1C(=O)NC1CCCCC1
  A: -1.4%; B: 2.7%; C: nt; D: 4.4%

O=C1COc2ccc(S(=O)(=O)N3CCN(c4cccc(C(F)(F)F)c4)CC3)cc2N1
  A: 7.1%; B: -5.5%; C: nt; D: 11.2%

Cc1onc(-c2ccccc2)c1C(=O)NC(=S)NNC(=O)c1ccc(O)cc1O
  A: ?; B: 4.8%; C: -6.8; D: 23.5%

CCN(c1ccc2c(c1)OCO2)S(=O)(=O)c1cc(Br)cc2c1N(C(C)=O)CC2
  A: -3.5%; B: -1.7%; C: 5.0; D: 4.2%

N#Cc1cccc(Oc2ccc(S(=O)(=O)N3CCCC3)cn2)c1
  A: nt; B: ?; C: nt; D: 21.6%

NCCCCc1ccc2ccc3cccc4ccc1c2c34
  A: nt; B: 0.2%; C: nt; D: 1.6%

CCN1CCN(c2c(Cl)cccc2NC(=O)c2ccc(Br)o2)CC1
  A: -0.1%; B: 0.3%; C: -20.5; D: 23.3%

CCOCCCn1c(=N)c(C(=O)NCc2ccc3c(c2)OCO3)cc2c(=O)n3cccc(C)c3nc21
  A: 1.0%; B: ?; C: -4.4; D: ?

COc1ccc(NC(=O)Nc2ccc3c(c2)C(=O)N([C@H](C)CO)C[C@H](C)[C@@H](CN(C)C(=O)Nc2ccc(C(F)(F)F)cc2)O3)cc1
  A: nt; B: -0.2%; C: nt; D: -2.0%

CC(C)N1CCN(Cc2ccc(C#CC(C)(C)O)cc2)CC1CCO (stereo unspecified)
  A: -1.9%; B: ?; C: 8.1; D: 10.8%

COC(=O)c1c(-c2ccc(OC)cc2)oc2ccc(-c3cc(OC)c(OC)c(OC)c3)cc12
  A: nt; B: 5.6%; C: nt; D: 1.9%

Cc1c(Cl)cnc(NC(=O)COC(=O)C2CC3CCCC(C2)C3=O)c1Cl (stereo unspecified)
  A: nt; B: 1.7%; C: nt; D: 0.8%

C=CCn1nc2ccccc2c1OC
  A: nt; B: -1.9%; C: nt; D: -24.6%

O=C(COC(=O)CC1CC2CCC1C2)Nc1ccccc1[N+](=O)[O-] (stereo unspecified)
  A: nt; B: -1.4%; C: nt; D: 16.6%

Six entries from above in a different format:
| structure | miR-21 FLuc | Rango complex inh | GLA inh pH 4.5 | Rango release inh |
| --- | --- | --- | --- | --- |
| Cc1ccsc1/C=N/Nc1nc(Cl)c(Cl)cc1Cl | -45.4% | ? | -5.6 | 8.0% |
| COc1ccccc1N1CCN(C(c2ccccc2Cl)c2nnnn2C(C)(C)C)CC1 (stereo unspecified) | -3.9% | -0.4% | 2.2 | -23.5% |
| O=c1[nH]c2ccccc2nc1-c1cccs1 | -37.6% | ? | -3.4 | ? |
| Cc1ccc(SCC(=O)Nc2nnc(C(C)(C)C)s2)cc1 | -1.1% | 2.5% | nt | 10.4% |
| Cn1c(=O)c2cn(-c3cccc4ccccc34)cc2n(C)c1=O | -3.1% | -5.3% | -3.9 | ? |
| COc1cc(OC)cc(C(=O)NC(C(=O)NCCN(C)C)C23CC4CC(CC(C4)C2)C3)c1 (stereo unspecified) | -3.4% | 0.4% | -5.0 | 1.9% |
